miR-21 reporter: qHTS Assay for Modulators of miRNAs and/orActivators of miR-21 | Potency, µM (titrated, usually from 38.3 µM), without a hit: at the highest dose reporter change, positive = more light | HeLa miR-21 FLuc reporter, luciferase, 48 h | 340,000 tested, under 10 active; active = well fitted rising curve with a large enough effect; inconclusive = small, poorly fitted or top-dose-only effect; inactive = no such curve, though single readings can be large or run the other way;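 further: % of control where 0% means no effect; miR-21 action dims this reporter so a rising signal means less miR-21 action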
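HeLa cells stably expressing CMV-driven firefly luciferase with a downstream miR-21 binding sequence, endogenously expressing miR-21, were treated with titrations (up to about 40uM final) for 48 hours at 37 degree Celsius. Luciferase luminescence was read after lysis.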
* hit, by the source's call; ? = inconclusive; [ ] = remark or other dose. These rows are one share of the data; the hit share may differ from the screen's.

SMILES | miR-21 reporter
CCCOc1ccc(C2C(=O)N(C3CCCCCC3)CC(=O)N2CCCOCC)cc1OC (stereo not drawn) | -18%
COc1ccc(CNC(=O)c2ccc3c(c2)nc2n3CCOC2)c(OC)c1 | -19%
CCOC(=O)c1ccc(NC(=O)c2c(C)oc3nc(C)nc(N4CCCC4)c23)cc1 | 2%
Cc1ccccc1NC(=O)c1sc2nc3n(c(=O)c2c1C)N=C(c1ccccc1)CS3 | 1%
COc1ccc(S(=O)(=O)N2CCC(c3nnc(-c4ccccc4C)o3)CC2)c(OC)c1 | 0%
COc1ccc(-c2noc(N3CCC(C(=O)N4CCN(c5cccc(OC)c5)CC4)CC3)n2)cc1 | 25%
Cc1ccc(CN2c3ccccc3-c3nc(SCC(=O)NCc4ccccc4)ncc3S2(=O)=O)cc1 | -1%
CCN(CC)CCn1c(=N)n(CCOc2ccccc2Cl)c2ccccc21 | ?
Cc1ccc(CSc2nc3ccc(NC(=O)COc4ccccc4)cc3s2)cc1 | -6%
COc1ccc(CNC(=O)CN2C(=O)COc3ccccc32)c(OC)c1 | -17%
CCc1ccc(C2C(C(=O)Nc3ccccc3)=C(C)Nc3c(C(=O)Nc4ccc(C)cc4)cnn32)cc1 (stereo not drawn) | 18%
Cc1cc(SCC(=O)Nc2ccc(F)cc2F)nc(=O)[nH]1 | -6%
COC(=O)c1ccccc1NC(=O)c1ccc2c(=O)n3c(nc2c1)CCCCC3 | -2%
Cc1cccc(C2CC(=O)Nc3cc4c(cc32)OCO4)c1 (stereo not drawn) | 22%
CCOc1ccc(N(C)C(=O)C2CCN(S(=O)(=O)c3c(C)noc3/C=C/c3ccc(C)cc3)CC2)cc1 | -7%
CC(C)(C)c1ccc(S(=O)(=O)c2cnc(SCC(=O)Nc3ccc4c(c3)OCCO4)[nH]c2=O)cc1 | 1%
CCc1ccc(C2c3c(-c4ccccc4O)n[nH]c3C(=O)N2Cc2cccnc2)cc1 (stereo not drawn) | -2%
O=C1CC(c2cccc(O)c2)c2c(nc(SCc3ccccc3F)[nH]c2=O)N1 (stereo not drawn) | -15%
Cc1oc2ncnc(N3CCOCC3)c2c1C(=O)NCc1ccc(Cl)cc1 | -8%
COc1cccc(CNC(=O)c2oc3c(c2C)-c2nn(Cc4cccc(Cl)c4)cc2CC3)c1OC | -2%
CCN(CC)C(=O)c1c(-c2ccccc2)c(-c2ccccc2)nn(CC)c1=O | 26%
CC(C)c1ccc(N2C(=O)CS(=O)(=O)C23C(=O)N(Cc2cccc(F)c2)c2ccccc23)cc1 (stereo not drawn) | -3%
CN(CC(=O)Nc1ccccc1F)S(=O)(=O)c1ccc2c(c1)c(=O)n(C)c(=O)n2C | -6%
Cc1ccc(-n2nc(CO)c(C(=O)NCCCCc3ccccc3)n2)cc1C | -4%
COc1ccc(OC)c(NC(=O)c2oc3c(c2C)-c2nn(Cc4ccc(Cl)cc4)cc2CC3)c1 | 12%
Going on with the list.
SMILES | miR-21 reporter
Cc1ccc(C)c(OC(=O)CSc2nnc(-c3cccs3)o2)c1 | -1%
COc1ccc(Br)cc1C(=O)Nc1nc2ccc(F)cc2s1 | -3%
CCc1ccc(NC(=O)Cn2c(=O)c(-c3ccccc3NC(C)=O)nc3ccccc32)cc1 | 3%
O=C(Nc1c(C(=O)N2CCN(c3ccccc3F)CC2)oc2ccccc12)c1ccc(Br)o1 | 17%
Cc1cc(OC(C)C(=O)N(Cc2ccco2)Cc2ccccc2F)cc(C)c1Cl (stereo not drawn) | 23%
CCCOc1ccc(CNC(=O)C(C)n2nc(C)n3c(cc4occc43)c2=O)cc1 (stereo not drawn) | 0%
CCOC(=O)c1cccc(NC(=O)CC(c2ccc(F)cc2)N2Cc3ccccc3C2=O)c1 (stereo not drawn) | 1%
Cc1ccc(NC(=O)c2nc(S(C)(=O)=O)ncc2N(Cc2ccco2)Cc2ccccc2F)c(C)c1 | 4%
CCn1cc(C(=O)NCCCN(CC(C)C)CC(C)C)c(=O)c2cc(S(=O)(=O)N3CCc4ccccc4C3)ccc21 | 0%
Cc1ccc(N2CC(C(=O)NCc3nnnn3-c3ccc(C)c(C)c3)CC2=O)cc1C (stereo not drawn) | 2%
CCC(=O)N1CCc2cc(Br)cc(S(=O)(=O)Nc3ccc(C)cc3C)c21 | -4%
Cc1ccc(CN2CCC(CNC(=O)Nc3ccc(C)c(C)c3)C2)cc1 (stereo not drawn) | 9%
Cc1ccc(CNC(=O)c2oc3c(c2C)-c2nn(Cc4ccc(Cl)cc4)cc2CC3)cc1 | -2%
CCOc1ccc(NC(=O)c2oc3ccccc3c2NC(=O)c2cc(C)cc(C)c2)cc1 | 2%
O=C(c1noc2c1CCCCC2)N1CCN(c2cccc(C(F)(F)F)c2)CC1 | 11%
CCOC(=O)c1c(S(=O)(=O)N2CCCC(C(=O)Nc3ccccn3)C2)c(C)n(C)c1C (stereo not drawn) | 10%
CCOC(=O)c1ccc(-n2c(CCC(=O)O)ccc2-c2ccccc2)cc1O | -19%
CC1(C(=O)NC2CCCCC2)Cc2ccccc2C(=O)N1Cc1ccc(Cl)cc1 (stereo not drawn) | -2%
CCOC(=O)c1cc(-c2ccccc2)n(CCCC(=O)Nc2cccc(Cl)c2C)c1C | -6%
CCN1CCN(c2ncc3c(n2)CCN(Cc2sccc2C)C3)CC1 | 21%
O=C(CN(c1ccc(Cl)c(C(F)(F)F)c1)S(=O)(=O)c1ccccc1)Nc1cccnc1 | 13%
Cc1ccccc1NC(=O)Cn1c(=O)n(CCC(=O)N2CCc3ccccc3C2)c(=O)c2ccccc21 | -5%
C/C=C/C(O)c1ccc2ccccc2c1 (stereo not drawn) | -13%
CCCCOc1ccc(C2C(=O)N(C3CCCCC3)CC(=O)N2CCCC)cc1 (stereo not drawn) | 1%
Cc1ccc(NC(=O)CSc2nc3n[nH]c(C)c3c(=N)n2-c2ccccc2C)cc1C | 2%
Remaining list, next part:
SMILES | miR-21 reporter
COc1ccc(CNC(=O)CCCN2C(=O)CSc3c2c(C)nn3-c2ccccc2)cc1 | -2%
CCCCOCc1cc(CN2CCN(c3cccc(Cl)c3)CC2)c(O)c2ncccc12 | -11%
COc1ccc(-c2cc(C(=O)Nc3cc(C(F)(F)F)ccc3Cl)no2)cc1 | -1%
COc1cc(NC(=O)Cn2nnc(-c3ccc(C(F)(F)F)cc3)n2)c(C(=O)O)cc1OC | -6%
CCN(Cc1ccccc1)C(=O)c1c(C)oc2ncn(C)c(=O)c12 | 0%
COc1cc(OC)c(NC(=O)c2nn(-c3ccc(C)cc3)c(=O)c3c2c2ccccc2n3C)cc1Cl | -2%
COC(=O)Cn1c(SCCOc2ccccc2Cl)nc2ccccc21 | 12%
COc1ccc(Cl)cc1NC(=O)Cc1ccc(NC(=O)N2CCCCc3ccccc32)cc1 | 3%
COc1ccc(NC(=O)Cn2c(=O)n(CCCC(=O)NCc3ccccc3Cl)c(=O)c3ccccc32)c(OC)c1 | 15%
COc1ccc(Cl)cc1NC(=O)NCCn1c(=O)oc2ccc(C)cc21 | ?
CCCCSc1nnc2c(n1)OC(c1ccc(Br)s1)Nc1ccccc1-2 (stereo not drawn) | -48%
CC(C)(C)OC(=O)N1CCC(c2c(C(=O)N3CCOCC3)cnn2-c2cccc(F)c2)CC1 | 1%
CC1=C(C(=O)OC2CCCCCC2)C(c2c(F)cccc2Cl)CC(=O)N1 (stereo not drawn) | 12%
O=C(NCc1ccccc1)c1nc(-c2ccc(Cl)cc2)n2c1CCCCC2 | ?
Cc1ccc(O)c(NC(=O)c2noc3c2CCCC3)c1 | -53%
Cc1ccccc1NC(=O)c1nc(S(C)(=O)=O)ncc1N(Cc1ccco1)Cc1sccc1C | 8%
Cc1ccc2c(c1)-c1c(cnc3cc(-c4ccc(Cl)cc4)nn13)CO2 | -7%
Cc1ccc(N2C(=O)CS(=O)(=O)C23C(=O)N(C)c2ccccc23)cc1F (stereo not drawn) | -5%
CCCCNS(=O)(=O)c1ccc2nc(-c3cccnc3)cc(C(=O)NCCCOC(C)C)c2c1 | 8%
CCc1ccc(C(=O)c2cn(CC(=O)Nc3cc(OC)cc(OC)c3)c3ccc(CC)cc3c2=O)cc1 | -2%
COc1ccc(C(=O)N2CCN(C(=O)COc3ccc(Br)cc3)CC2)cc1OC | 24%
Cc1ccc(CNC(=O)c2c(C)oc3nc(C)nc(N4CCOCC4)c23)cc1 | -5%
COc1ccc(NC(=O)CSc2nc3ccccc3nc2N2CCC(C)CC2)cc1 | 4%
Cc1ccccc1C(=O)Nc1nc(-c2nnn(-c3ccc(C(C)C)cc3)c2C)ns1 | 6%
COc1ccc(NC(=O)COc2ccc(S(=O)(=O)NC3CCCCC3)cc2)cc1OC | 3%

16 consecutive compounds already listed:
SMILES | miR-21 reporter
COc1cc(NC(=O)Cn2nnc(-c3ccc(C(F)(F)F)cc3)n2)c(C(=O)O)cc1OC | -6%
CCN(Cc1ccccc1)C(=O)c1c(C)oc2ncn(C)c(=O)c12 | 0%
COc1cc(OC)c(NC(=O)c2nn(-c3ccc(C)cc3)c(=O)c3c2c2ccccc2n3C)cc1Cl | -2%
COC(=O)Cn1c(SCCOc2ccccc2Cl)nc2ccccc21 | 12%
COc1ccc(Cl)cc1NC(=O)Cc1ccc(NC(=O)N2CCCCc3ccccc32)cc1 | 3%
COc1ccc(NC(=O)Cn2c(=O)n(CCCC(=O)NCc3ccccc3Cl)c(=O)c3ccccc32)c(OC)c1 | 15%
COc1ccc(Cl)cc1NC(=O)NCCn1c(=O)oc2ccc(C)cc21 | ?
CCCCSc1nnc2c(n1)OC(c1ccc(Br)s1)Nc1ccccc1-2 (stereo not drawn) | -48%
CC(C)(C)OC(=O)N1CCC(c2c(C(=O)N3CCOCC3)cnn2-c2cccc(F)c2)CC1 | 1%
CC1=C(C(=O)OC2CCCCCC2)C(c2c(F)cccc2Cl)CC(=O)N1 (stereo not drawn) | 12%
O=C(NCc1ccccc1)c1nc(-c2ccc(Cl)cc2)n2c1CCCCC2 | ?
Cc1ccc(O)c(NC(=O)c2noc3c2CCCC3)c1 | -53%
Cc1ccccc1NC(=O)c1nc(S(C)(=O)=O)ncc1N(Cc1ccco1)Cc1sccc1C | 8%
Cc1ccc2c(c1)-c1c(cnc3cc(-c4ccc(Cl)cc4)nn13)CO2 | -7%
Cc1ccc(N2C(=O)CS(=O)(=O)C23C(=O)N(C)c2ccccc23)cc1F (stereo not drawn) | -5%
CCCCNS(=O)(=O)c1ccc2nc(-c3cccnc3)cc(C(=O)NCCCOC(C)C)c2c1 | 8%

More compounds:
SMILES | miR-21 reporter
Cc1ccc(CNC(=O)CN2C(=O)C3(SCC(=O)N3c3cc(C)cc(C)c3)c3ccccc32)cc1 (stereo not drawn) | 7%
COc1ccc([C@]23Cc4ccccc4C(O2)C2=C(O3)C(=O)c3ccccc3C2=O)cc1 | -27%[7.66 µM]
O=C(CN1C(=O)COc2ccc(S(=O)(=O)N3CCOCC3)cc21)NCc1ccc(F)cc1 | -3%
CCOC(=O)c1cc(-c2ccc(F)cc2)n(CCC(=O)Nc2cc(OC)cc(OC)c2)c1C | 7%
CCc1ccc(CNC(=O)c2ccc(-c3nc(CSc4ccc(C)cc4)c(C)o3)cc2)cc1 | -3%
CCOC(=O)c1ccc(NC(=O)c2c(N3CCCC3=O)c3cc(OC)ccc3n2C)cc1 | 18%
CCOC(=O)c1cc(S(=O)(=O)N(C)c2ccccc2)[nH]n1 | -6%
O=C(NCc1ccccc1Cl)c1ccc2c(c1)nnn2C1CCCC1 | -30%
CCC(=O)N1CCc2cc(S(=O)(=O)NCCC(=O)Nc3ccc(N(CC)CC)cc3C)ccc21 | 4%
CCOc1ccc(C(=O)Nc2nnc(SCc3cc(=O)c4cc(C)ccc4[nH]3)s2)cc1 | 0%
Cc1ccc(C)c(CN2C(=O)c3ccccc3S(=O)c3ccc(C(=O)N4CCCCC4)cc32)c1 (stereo not drawn) | 10%
Cn1c(NCc2cccc(Cl)c2)nc2ccccc21 | -50%
CC(=O)c1cccc(NC(=O)c2noc3c2CCCC3)c1 | -47%
Cn1nnnc1SCCCNCc1ccc(-c2cccc(Cl)c2)o1 | ?
CCOC(=O)N1CCC(NC(=O)c2ccc3c(c2)N(Cc2ccc(Cl)cc2)C(=O)c2ccccc2S3=O)CC1 (stereo not drawn) | 24%
O=C(NCc1ccc(Cl)cc1)c1cc2c(s1)-c1ccccc1SC2 | -14%
COc1ccc(-n2ncc(C(=O)Nc3cccc(C(F)(F)F)c3)c2C2CCN(C(=O)OC(C)(C)C)CC2)cc1 | 3%
COc1ccc(Nc2ncc(C(=O)Nc3cc(C)ccc3OC)c3ccccc23)cc1 | 27%
COCCCNC(=O)CSc1nc2cc3c(cc2c(=O)n1CCCC(=O)NCc1ccc2c(c1)OCO2)OCO3 | 1%
CCOc1ccc(NC(=O)c2ccc3nc(Cc4ccccc4)oc3c2)cc1 | 1%
O=C(Cn1ncn2nc(-c3cccs3)cc2c1=O)NCc1ccccc1Cl | -17%
COc1cc2c(cc1OC)C(COc1ccccc1OC)N(C(=O)CC(C)C)CC2 (stereo not drawn) | -2%
CCN(CCCNC(=O)c1nn(-c2ccc(OC)cc2)c(=O)c2c1c1ccccc1n2C)c1ccccc1 | 2%
Cc1ccc(-c2noc(-c3ccc(N4CCCC4)c([N+](=O)[O-])c3)n2)cc1 | -1%
COc1cccc(Nc2cc(-c3ccccc3)nc(C)n2)c1 | -46%
Following part.
SMILES | miR-21 reporter
CC(=O)c1cccc(NC(=O)Nc2nnc(N3CCCC3)s2)c1 | 24%
CCOC(=O)c1ccc2c(c1)N(Cc1ccccc1)C(=O)c1ccccc1S2 | -15%
CCOc1ccccc1N(C)C(=O)C1CCCN(c2ncnc3c2nc2n3CCCCC2)C1 (stereo not drawn) | -3%
OC(c1ccccc1)c1nc2ccccc2n1Cc1c(F)cccc1Cl (stereo not drawn) | 14%
Cc1ccc2oc(=O)c(S(=O)(=O)c3ccc(F)cc3)cc2c1 | 4%
CC(NC(=O)c1ccc(F)cc1)c1nc2ccccc2[nH]1 (stereo not drawn) | 0%
CCOc1ccc(NC(=O)Cn2cc(C(=O)c3ccc(F)cc3)c(=O)c3cc4c(cc32)OCO4)cc1 | 7%

Screens from PubChem.
